Source: PubChem BioAssay (Broad Institute)
Ecoli rRNA inh: inhibits bacterial ribosomal RNA function over humanized ribosomes | E. coli WT GFP vs humanized-ribosome RFP mutants, fluorescence, 24 h; stronger effect = lower value; DMSO median 0, no signal -100 | GFP signal change (wild-type ribosome), % (test concentration not listed) | 350,000 tested, 1.6% active;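 active = significant combined selectivity score with lowered wild-type GFP, culture density cut under 30%, mutant RFP and density less affected; inactive = any of these conditions unmet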; also: one replicate is shown; some compounds called inactive have numbers as strong as hits
Ecoli rRNA inh OD600: recorded beside Ecoli rRNA inh, whose call it bears; OD600 change, %; measured here: OD600 growth;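 optical density of the mix in the first replicate; 0 = DMSO median and -100 = no signal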
Ecoli rRNA inh RFP: second read-out of Ecoli rRNA inh, no call of its own (marks repeat the call); RFP signal change, %; measured here: RFP humanized mutant strains;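 first replicate; 0 = DMSO median and -100 = no signal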
An asterisk follows results filed as active; & = joins results of further samples.

nr	Ecoli rRNA inh	compound	Ecoli rRNA inh OD600	Ecoli rRNA inh RFP
1	-2	C[C@@H]1CN([C@@H](C)CO)C(=O)Cc2cc(NC(=O)Nc3ccc(C(F)(F)F)cc3)ccc2O[C@@H]1CN(C)S(=O)(=O)c1cccs1	-7	-1.1
2	-3&23	C[C@H]1CN([C@@H](C)CO)S(=O)(=O)c2ccc(Br)cc2O[C@H]1CN(C)C(=O)Cc1ccncc1	-10&10	-5.0&3.0
3	-3	CN1c2ccc(-c3cccc(C#N)c3)cc2[C@H]2[C@H](CCN2C(=O)C2CC2)[C@H]1CO	-23	-0.2
4	-4	O=C(Nc1ccc(C(F)(F)F)cc1)Nc1ccc2c(c1)[C@@H]1C[C@H](CC(=O)N3CCc4ccccc4C3)O[C@H](CO)[C@@H]1O2	-17	-3.4
5	-1	C[C@H]1CN([C@@H](C)CO)C(=O)c2cc(NC(=O)CCN3CCOCC3)ccc2O[C@@H]1CN(C)Cc1ccc(C(F)(F)F)cc1	1	-2.0
6	-4	O=C(NCC[C@@H]1CC[C@@H](NC(=O)c2cnccn2)[C@@H](CO)O1)Nc1ccc(Cl)cc1	0	7.1
7	10	CC(=O)C[C@@H]1OC[C@H](C)N1S(=O)(=O)c1ccc(C)cc1	9	-2.1
8	-1	C[C@H](CO)N1C[C@H](C)[C@@H](CN(C)Cc2ccncc2)OCCCC[C@H](C)Oc2ccc(NS(=O)(=O)c3ccc(Cl)cc3)cc2C1=O	-10	3.4
9	6	O=C(C[C@H]1CC[C@@H]2[C@H](COC[C@H](O)CN2S(=O)(=O)c2ccccc2)O1)N1CCOCC1	11	-4.3
10	-8	CN(C)C(=O)c1cccc(-c2ccc3c(c2)[C@@H]2[C@@H](CCN2C(=O)c2ccccc2F)[C@@H](CO)N3)c1	-3	1.2
11	-1	COCC#Cc1cnc2c(c1)C(=O)N([C@H](C)CO)C[C@H](C)[C@@H](CN(C)Cc1ccc3c(c1)OCO3)O2	-3	0.2
12	12	O=C1c2ccccc2C(c2nnnn2Cc2ccccc2)N1C1CC1 (stereo unspecified)	7	1.2
13	-7	CCOC1=C2CN(S(=O)(=O)c3ccc(C)cc3)C(c3cccc(Cl)c3)CC2N(S(=O)(=O)c2ccc(C)cc2)C(c2ccncc2)C1 (stereo unspecified)	-8	3.4
14	0	C[C@@H]1CCCCO[C@@H](CN(C)C(=O)Cc2ccccc2)[C@@H](C)CN([C@H](C)CO)C(=O)c2cc(NS(=O)(=O)c3cn(C)cn3)ccc2O1	12	-1.1
15	4	COc1ccc2c3c(n(C)c2c1)[C@@H](CO)N(CC1CCOCC1)CC31CN(C(=O)c2cccc(F)c2)C1	3	1.6
16	5	O=C(C[C@@H]1C[C@H]2c3cc(NC(=O)c4cccnc4)ccc3O[C@H]2[C@H](CO)O1)NCc1ccccn1	11	2.1
17	-2	COc1ccc(S(=O)(=O)N(C)C[C@H]2OCCCC[C@@H](C)Oc3ccc(NC(=O)c4ccncc4)cc3C(=O)N([C@@H](C)CO)C[C@H]2C)cc1	-8	1.3
18	-4	C[C@H](CO)N1C[C@H](C)[C@H](CN(C)S(=O)(=O)Cc2ccccc2)OCc2ccccc2-c2c(n(C)c3ccccc23)C1=O	-5	-0.5
19	1	C[C@@H]1CN([C@@H](C)CO)C(=O)c2cccc(NC(=O)Nc3ccc4c(c3)OCO4)c2O[C@@H]1CN(C)S(C)(=O)=O	7	-2.6
20	-2	C[C@@H]1CCCCO[C@H](CN(C)C(=O)NC2CCCCC2)[C@@H](C)CN([C@H](C)CO)C(=O)c2cc(N(C)C)ccc2O1	-6	-2.0

Part of the list above in order of molecular weight, lowest first.
nr	Ecoli rRNA inh	compound	Ecoli rRNA inh OD600	Ecoli rRNA inh RFP
7	10	CC(=O)C[C@@H]1OC[C@H](C)N1S(=O)(=O)c1ccc(C)cc1	9	-2.1
9	6	O=C(C[C@H]1CC[C@@H]2[C@H](COC[C@H](O)CN2S(=O)(=O)c2ccccc2)O1)N1CCOCC1	11	-4.3
11	-1	COCC#Cc1cnc2c(c1)C(=O)N([C@H](C)CO)C[C@H](C)[C@@H](CN(C)Cc1ccc3c(c1)OCO3)O2	-3	0.2
2	-3&23	C[C@H]1CN([C@@H](C)CO)S(=O)(=O)c2ccc(Br)cc2O[C@H]1CN(C)C(=O)Cc1ccncc1	-10&10	-5.0&3.0
19	1	C[C@@H]1CN([C@@H](C)CO)C(=O)c2cccc(NC(=O)Nc3ccc4c(c3)OCO4)c2O[C@@H]1CN(C)S(C)(=O)=O	7	-2.6
4	-4	O=C(Nc1ccc(C(F)(F)F)cc1)Nc1ccc2c(c1)[C@@H]1C[C@H](CC(=O)N3CCc4ccccc4C3)O[C@H](CO)[C@@H]1O2	-17	-3.4
1	-2	C[C@@H]1CN([C@@H](C)CO)C(=O)Cc2cc(NC(=O)Nc3ccc(C(F)(F)F)cc3)ccc2O[C@@H]1CN(C)S(=O)(=O)c1cccs1	-7	-1.1
13	-7	CCOC1=C2CN(S(=O)(=O)c3ccc(C)cc3)C(c3cccc(Cl)c3)CC2N(S(=O)(=O)c2ccc(C)cc2)C(c2ccncc2)C1 (stereo unspecified)	-8	3.4
17	-2	COc1ccc(S(=O)(=O)N(C)C[C@H]2OCCCC[C@@H](C)Oc3ccc(NC(=O)c4ccncc4)cc3C(=O)N([C@@H](C)CO)C[C@H]2C)cc1	-8	1.3

Further entries.
nr	Ecoli rRNA inh	compound	Ecoli rRNA inh OD600	Ecoli rRNA inh RFP
21	2	Cc1noc(C)c1NC(=O)Nc1cccc2c1O[C@@H](CN(C)S(C)(=O)=O)[C@H](C)CN([C@@H](C)CO)C2=O	8	-0.3
22	-4	N#C[C@H]1[C@@H](c2ccccc2/C=C/c2ccccc2)[C@@H](CO)N1S(=O)(=O)c1ccccc1	-7	-3.5
23	-6	Cc1noc(C)c1NC(=O)N(C)C[C@@H]1Oc2ccc(NS(=O)(=O)c3c(C)noc3C)cc2C(=O)N([C@@H](C)CO)C[C@@H]1C	2	-2.0
24	-3	CCCC(C)(C)C(=O)N1CCC1(C)C(=O)NS(=O)(=O)c1cccc(Cl)c1 (stereo unspecified)	6	7.4
25	-5	CS(=O)(=O)Nc1cccc(NC(=O)c2ccc(-n3ccnc3)c3ccoc23)c1	-2	4.4
26	1	CO[C@@H]1CN(C)C(=O)c2cc(NS(=O)(=O)c3ccccc3)ccc2OC[C@H](C)NC[C@@H]1C	-3	-1.1
27	-4	O=C(C[C@H]1CC[C@@H]2[C@H](COC[C@@H](O)CN2C(=O)Nc2ccc3c(c2)OCO3)O1)N1CCN(c2ccccc2)CC1	-4	-3.3
28	-1	N#C[C@@H]1N[C@H](CO)[C@H]1c1ccc(-c2cccc(F)c2)cc1	6	-0.7
29	-1	COc1ccc(CN(C)C[C@@H]2Oc3ccc(NC(=O)CCN4CCOCC4)cc3C(=O)N([C@@H](C)CO)C[C@@H]2C)cc1	5	1.4
30	2	COc1ccc(S(=O)(=O)N(C)C[C@@H]2Oc3ccc(NC(=O)Nc4ccc(C(F)(F)F)cc4)cc3CC(=O)N([C@H](C)CO)C[C@H]2C)cc1	6	-1.4
31	3	CN(C)CC(=O)N[C@H]1CC[C@H](CCNC(=O)C2CCCC2)O[C@H]1CO	4	-3.3
32	2	COc1ccc(CN(C)C[C@@H]2OCCCC[C@@H](C)Oc3ccc(NS(=O)(=O)c4ccc(C)cc4)cc3C(=O)N([C@@H](C)CO)C[C@H]2C)cc1	-1	2.1
33	1	CC(=O)NC[C@@H]1[C@@H](c2ccc(C3=CCCC3)cc2)[C@H](CO)N1C(=O)NC(C)C	6	0.7
34	-1	CC(=O)N1CC[C@@H]2[C@@H](CO)N(C)c3ccc(-c4ccc(C#N)cc4)cc3[C@@H]21	-3	1.6
35	-2	CS(=O)(=O)Nc1ccc2c(c1)[C@@H]1C[C@H](CC(=O)NCc3ccc(Cl)cc3)O[C@@H](CO)[C@@H]1O2	-1	-1.1
36	8	N#CC1C(=O)Nc2cccnc21 (stereo unspecified)	5	7.3
37	-4	C[C@@H]1CN([C@@H](C)CO)C(=O)c2cccc(NC(=O)c3nc4ccccc4s3)c2O[C@H]1CN(C)Cc1ccc(C(=O)Nc2ccccc2N)cc1	3	-2.0
38	-3	COc1ccc(NC(=O)N(C)C[C@H]2Oc3ccc(NC(=O)Nc4cccc5ccccc45)cc3CC(=O)N([C@@H](C)CO)C[C@H]2C)cc1	-3	-0.8
39	2	CO[C@@H]1CN(C)C(=O)c2ccc(NC(=O)C3CC3)cc2OC[C@@H](C)N(CCC(F)(F)F)C[C@H]1C	6	-0.1
40	10	CCCCn1nnnc1C(c1cc2ccccc2o1)N(C)Cc1ccccc1 (stereo unspecified)	6	7.0

Additional structures follow.
nr	Ecoli rRNA inh	compound	Ecoli rRNA inh OD600	Ecoli rRNA inh RFP
41	28	COc1ccc2c(c1)[C@@]1(OCCC=C[C@H]1C)C(=O)N2CC1CC1	17	-2.7
42	-7	Cc1ccc(C(=O)OCC(=O)NC2CCCCCCC2)cc1C	-24	-3.2
43	-2	C[C@H]1CN([C@@H](C)CO)C(=O)c2cc(N(C)C)ccc2O[C@H]1CN(C)Cc1ccc(-c2ccccc2)cc1	-3	0.6
44	2	CCC(=O)N(C)C[C@@H]1Oc2cc(C#CC(C)(C)O)ccc2S(=O)(=O)N([C@@H](C)CO)C[C@@H]1C	7	-0.1
45	-13	FC(F)(F)C(F)(F)C(F)(F)c1nc2nc(Cl)c(Cl)nc2[nH]1	-32	3.9
46	5	CCS(=O)(=O)N1CC2(CN(C(=O)Nc3c(C)noc3C)[C@@H](CO)c3[nH]c4cc(OC)ccc4c32)C1	17	-1.1
47	-15	COCOCCn1cc(CN2CCS(=O)(=O)N(Cc3ccc(-c4cccc(CO)c4)cc3)C(C(C)C)C2=O)nn1 (stereo unspecified)	-24	6.2
48	5	C[C@@H]1CN([C@@H](C)CO)C(=O)c2cc(NS(=O)(=O)c3cn(C)cn3)ccc2O[C@@H](C)CCCCO[C@H]1CN(C)Cc1ccc(C(=O)O)cc1	2	-1.3
49	0	CCC(=O)N1[C@H](CO)[C@H](c2ccccc2)[C@H]1CN(CC)C(=O)c1cccc(F)c1	3	1.3
50	-2	CC(C)NC(=O)N(C)C[C@H]1Oc2c(NC(=O)c3ccc(-c4nccs4)cc3)cccc2C(=O)N([C@H](C)CO)C[C@@H]1C	3	-1.0
51	-6	CN1c2ccc(-c3cccc(C#N)c3)cc2[C@@H]2[C@@H](CCN2C(=O)c2ccc(F)cc2)[C@@H]1CO	-26	18
52	-2	CC=Cc1ccc2n(c1=O)C[C@H]1[C@H](CO)[C@@H](C(=O)Nc3ccccc3)N(CC3CC3)[C@@H]21 (mixture of isomers)	-1	-0.1
53	-6	CC=Cc1ccc2n(c1=O)C[C@H]1[C@H](CO)[C@@H](C(=O)NCc3ccccc3)[C@@H]2N1Cc1ccccc1OC (mixture of isomers)	-14	2.4
54	0	COc1ccccc1NC(=O)N1CC(=O)N2[C@H](CO)[C@@H](c3ccc(-c4cccc(C)c4)cc3)[C@H]2C1	-11	2.3
55	3	C[C@@H]1CN([C@H](C)CO)C(=O)c2cc(NC(=O)Nc3ccccc3)ccc2O[C@@H]1CN(C)S(=O)(=O)c1cn(C)cn1	1	0.0
56	-1	O=C(C[C@H]1CC[C@@H]2[C@H](COC[C@@H](O)CN2S(=O)(=O)c2cccc(Cl)c2)O1)NCCCN1CCOCC1	-2	-2.9
57	3	C[C@@H]1CCCCO[C@@H](CN(C)Cc2ccc(Cl)c(Cl)c2)[C@@H](C)CN([C@@H](C)CO)C(=O)c2cc(NC(=O)Nc3ccc4c(c3)OCO4)ccc2O1	3	1.2
58	3	CC=Cc1ccc2n(c1=O)C[C@@H]1[C@@H](CO)[C@H](C(=O)NCc3ccccc3)[C@H]2N1C (mixture of isomers)	8	1.3
59	-2	CNC(=O)C[C@@H]1CC[C@H]2[C@H](COc3ccc(NC(=O)c4cccs4)cc3C(=O)N2C)O1	-2	0.9
60	2	C[C@@H]1CN([C@@H](C)CO)S(=O)(=O)c2ccc(C#Cc3ccccc3)cc2O[C@H]1CN(C)S(=O)(=O)c1ccccc1F	-1	2.7

The results go on.
nr	Ecoli rRNA inh	compound	Ecoli rRNA inh OD600	Ecoli rRNA inh RFP
61	0	CO[C@H]1CN(C)C(=O)c2cc(NC(=O)Nc3ccc(Cl)cc3)ccc2OC[C@@H](C)N(C(=O)Nc2c(C)noc2C)C[C@H]1C	1	6.1
62	1	COc1ccccc1CN(C)C[C@H]1OCc2cn(nn2)CCCC(=O)N([C@H](C)CO)C[C@@H]1C	7	0.9
63	2	C[C@@H]1CN([C@H](C)CO)C(=O)Cc2cc(NS(=O)(=O)c3ccc(F)cc3)ccc2O[C@@H]1CN(C)C(=O)Nc1ccccc1	3	3.0
64	-10	CC1CC(=O)c2cc(-c3ccccc3)oc2C1 (stereo unspecified)	-20	-2.3
65	1	Cc1noc(C)c1S(=O)(=O)Nc1ccc2c(c1)C(=O)N([C@@H](C)CO)C[C@H](C)[C@H](CN(C)C(=O)Nc1ccc(C(F)(F)F)cc1)OCCCC[C@H](C)O2	-4	-1.2
66	2	O=C(CN1CCOCC1)NCC[C@@H]1CC[C@@H](NC(=O)Nc2ccc(C(F)(F)F)cc2)[C@@H](CO)O1	0	-0.4
67	5	CCCN(C)C[C@@H]1Oc2cc(C#CCOC)ccc2S(=O)(=O)N([C@H](C)CO)C[C@@H]1C	7	0.9
68	1	C[C@@H]1CN([C@@H](C)CO)C(=O)Cc2cc(NC(=O)C3CC3)ccc2O[C@H]1CN(C)Cc1ccncc1	7	-1.1
69	-1&6	O=C(Nc1cc(F)ccc1F)N1[C@@H]2CNC[C@H]1C2c1ccc(-c2cccnc2)cc1 (stereo partly specified)	4&9	0.5&2.0
70	-53	N#Cc1cc(F)cc(OCCCN2CCC(C(O)(c3ccccc3)c3ccccc3)CC2)c1	-79	-13
71	2	CN1C(=O)c2cc(NC(=O)C3CCCC3)ccc2OC[C@H]2O[C@@H](CC(=O)NCC(F)(F)F)CC[C@@H]21	2	-2.8

This is a subset; rates above refer to the full screens.
